# eIF4H inh: inhibitors of RNA binding by human eIF4H | Q15056 | eIF4H fluorescence polarization binding assay | inhibition, % at 35 µM | hit rate 0.94% among 290,000 | AID 2012;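 active = 50% or more with normal probe brightness, or confirmed in later tests; about a fifth of its hits are not listed in these tables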;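 also: calls also rest on retests at 20 µM and on dose response follow-up; 0% = protein and probe with vehicle and 100% = probe without protein; strong numbers were not always called active; many hits fall short of the cut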
# CSC inhib: blocks cancer stem cells; cancer stem cell-like cells viability, luminescence; inhibition, % at 7.5 µM; hit rate 1.1% among 300,000;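 active = mean at 75% or more and at least half the replicates too; tested in HMLE shEcad cells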;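 also: 0% = median of negative and 100% = median of positive control wells; the first replicate is given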
# MT1-MMP act inh: MT1-MMP (human) activation inhibition; GFP/RFP ratio change, % at 20 µM; hit rate 0.061% among 360,000; P50281; HT1080 RFP-PRO-GFP cells, GFP/RFP ratio fluorescence, overnight; percent of plate control window, DMSO zero;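 active = GFP/RFP ratio change of at least 30% with cell ATP level not reduced by more than half and red fluorescence within 50% of control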; also: strong numbers were not always called active
#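 Compound: 20 µM single dose, 1% DMSO / System: HT1080 RFP-PRO-GFP cells / Controls: DMSO and RFP-L50D-GFP cell wells / Read-out basis: GFP/RFP fluorescence ratio / Schedule: overnight compound exposure at 37 °C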
# PABP polyA inh: blocks human PABP binding to poly(A) RNA; fluorescence polarization; inhibition, % at 35 µM; hit rate 1% among 290,000; AID 2014;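 active = 50% or more with normal probe brightness, or confirmed in later tests; about a fifth of its hits are not listed in these tables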;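 also: calls also rest on retests at 20 µM and on dose response follow-up; controls were probe without protein and protein plus probe with vehicle; some compounds called inactive have numbers as strong as hits; many hits fall short of the cut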
# Target sequence (P11940 whole entry, looked up): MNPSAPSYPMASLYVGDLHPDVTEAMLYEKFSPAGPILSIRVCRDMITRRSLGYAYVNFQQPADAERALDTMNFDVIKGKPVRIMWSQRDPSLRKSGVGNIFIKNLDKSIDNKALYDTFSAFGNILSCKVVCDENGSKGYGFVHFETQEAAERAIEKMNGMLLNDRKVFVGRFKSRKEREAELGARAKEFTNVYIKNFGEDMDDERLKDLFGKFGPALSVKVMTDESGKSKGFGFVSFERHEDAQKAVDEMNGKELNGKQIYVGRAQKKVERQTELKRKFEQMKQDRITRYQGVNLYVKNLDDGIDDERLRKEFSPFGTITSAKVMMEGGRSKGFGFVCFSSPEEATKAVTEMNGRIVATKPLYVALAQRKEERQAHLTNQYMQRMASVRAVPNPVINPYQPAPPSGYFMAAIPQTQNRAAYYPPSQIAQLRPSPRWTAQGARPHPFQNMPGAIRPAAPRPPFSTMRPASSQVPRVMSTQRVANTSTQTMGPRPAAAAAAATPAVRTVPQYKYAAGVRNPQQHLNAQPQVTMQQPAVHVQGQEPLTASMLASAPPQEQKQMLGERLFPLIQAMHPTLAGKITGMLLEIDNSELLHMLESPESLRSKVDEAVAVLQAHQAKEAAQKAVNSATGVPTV
# HIV Env fusion: blocks HIV Env-driven cell-cell fusion; hit rate 1.1% among 360,000; HeLa-JRFL Env/CEM21 cell fusion, luciferase; AID 651610; inhibition, % at 12.3 µM;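 active = mean replicate inhibition score of at least 50 and every replicate individually at or above 50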;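 also: 0% = plate neutral controls and 100% = maraviroc near 300 nM; one replicate is shown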
# Rce1 inh: yeast Ras-converting enzyme inhibition | calls only | yeast membranes, quenched prenylated peptide cleavage fluorescence | hit rate 0.27% among 290,000;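 active = fall in fluorescence gain of 50% or more versus controls, with final raw signal at or below 3038400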;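 also: plate controls were neutral control wells for no effect and wells lacking membranes for full effect; tested at 10 µM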
# Target sequence (Q03530 whole entry, looked up): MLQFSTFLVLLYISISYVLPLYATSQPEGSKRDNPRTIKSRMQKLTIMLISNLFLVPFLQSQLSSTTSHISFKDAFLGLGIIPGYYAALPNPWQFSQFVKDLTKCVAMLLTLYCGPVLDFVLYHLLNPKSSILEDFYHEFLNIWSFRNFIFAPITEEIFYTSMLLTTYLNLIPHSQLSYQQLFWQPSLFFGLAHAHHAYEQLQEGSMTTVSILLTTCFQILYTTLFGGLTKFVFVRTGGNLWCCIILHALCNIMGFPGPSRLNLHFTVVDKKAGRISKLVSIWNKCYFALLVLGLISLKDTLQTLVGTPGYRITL
# Yeast UUG start: yeast start codon fidelity modulation; S. cerevisiae UUG-firefly luciferase reporter, luminescence/redox ratio; activity score, % at 18.7 µM; hit rate 0.13% among 350,000;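 active = replicate mean at a twofold rise or more, about +100% in these data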;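 also: firefly luciferase made from a UUG start codon reports start codon fidelity; reporter light over untreated wells divided by growth signal over untreated wells; some hits fall short of that in this replicate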
# eIF4H inh retest: recorded beside eIF4H inh, whose call it bears; inhibition, %; compound at 20 µM; confirmation average;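 mean of two retest wells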
# PABP polyA inh retest: second read-out of PABP polyA inh, no call of its own (marks repeat the call); inhibition, %; compound at 20 µM; confirmation repeats;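 mean of two retest wells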
# MT1-MMP act inh RFP: further read-out of MT1-MMP act inh, marked with its call; RFP signal change, %; measured here: RFP expression control read;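 0 = vehicle wells; hits needed this value within 50% of zero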
# * hit, by the source's call; i = inactive; nt = no result given; & = joins results of further samples; [ ] = another dose, or the depositor's remark.
SMILES,eIF4H inh,CSC inhib,MT1-MMP act inh,MT1-MMP act inh RFP,PABP polyA inh,HIV Env fusion,Rce1 inh,Yeast UUG start,others
C/C(=N\NC(=O)NC1CCCCC1)c1ccc(OC(F)F)cc1OC(F)F,5,4,1,-18,11,18,i,0,
COc1cccc(N2CCN(CC(=O)Nc3nnc(-c4ccccc4)s3)CC2)c1,6,nt,3,-13,10,nt,i,0,
CCOc1ccccc1NC(=O)COC(=O)/C=C/c1cccs1,nt,-1,2,1,nt,-4,nt,2,
COc1ccc(N(CC(O)Cn2nnc3ccccc32)S(=O)(=O)c2ccc(C)cc2)cc1 (stereo unspecified),-8,-7,4,0,-3,nt,i,-17,
CC(C)(C)OC(=O)CNC(=O)c1[nH]cnc1C(=O)N[C@@H](Cc1ccccc1)C(=O)OCc1ccccc1,0,-1,-2,0,6,7,i,-15,
N#C/C(C(=O)N1CCOCC1)=C1/SC(Cc2ccccc2Cl)C(=O)N1c1ccccc1 (stereo unspecified),3,1,-15,6,2,15,i,nt,
COCCN1C(=O)C(=O)/C(=C(/O)c2ccc(C)cc2)C1c1ccccn1 (stereo unspecified),-7,-5,2,1,-1,-2,i,-45,
Cc1[nH]c2ccc(F)cc2c1CCN(Cc1cccnc1)C(=S)Nc1ccccc1,-1,-2,-1,0,5,22,i,nt,
O=C(c1cc2ccccc2s1)N1CCOCC1,-2,7,2,5,10,21,i,nt,
N/C(=N\OC(=O)c1csnn1)c1ccc(C(F)(F)F)cc1,-1,-5,7,-3,-2,-19,i,0,
O=C(Nc1ccc(Cl)cc1C(=O)N1CCCCC1)c1ccco1,-4,-8,1,6,-7,1,i,-13,
CCOC(=O)c1ccc(NC(=O)c2c(N)n(C)c(=O)n(C)c2=O)cc1,nt,-24,0,1,nt,-12,i,-22,

# Molecules above that have a carbonyl joined to an NH by a bond outside any ring:
SMILES,eIF4H inh,CSC inhib,MT1-MMP act inh,MT1-MMP act inh RFP,PABP polyA inh,HIV Env fusion,Rce1 inh,Yeast UUG start,others
C/C(=N\NC(=O)NC1CCCCC1)c1ccc(OC(F)F)cc1OC(F)F,5,4,1,-18,11,18,i,0,
COc1cccc(N2CCN(CC(=O)Nc3nnc(-c4ccccc4)s3)CC2)c1,6,nt,3,-13,10,nt,i,0,
CCOc1ccccc1NC(=O)COC(=O)/C=C/c1cccs1,nt,-1,2,1,nt,-4,nt,2,
CC(C)(C)OC(=O)CNC(=O)c1[nH]cnc1C(=O)N[C@@H](Cc1ccccc1)C(=O)OCc1ccccc1,0,-1,-2,0,6,7,i,-15,
O=C(Nc1ccc(Cl)cc1C(=O)N1CCCCC1)c1ccco1,-4,-8,1,6,-7,1,i,-13,
CCOC(=O)c1ccc(NC(=O)c2c(N)n(C)c(=O)n(C)c2=O)cc1,nt,-24,0,1,nt,-12,i,-22,

# The list continues:
SMILES,eIF4H inh,CSC inhib,MT1-MMP act inh,MT1-MMP act inh RFP,PABP polyA inh,HIV Env fusion,Rce1 inh,Yeast UUG start,others
CNC[C@H]1Oc2c(NC(=O)C3CC3)cccc2C(=O)N([C@H](C)CO)C[C@@H]1C,nt,nt,3,3,nt,1[16.7 µM],nt,-18&-5,
O=C(C1CCCN(c2ncnc3c2nc2n3CCCCC2)C1)N1CCCCC1 (stereo unspecified),-14,-14,0,-4,-4,9,i,12,
COc1cccc(CC(NC(C)=O)C(=O)NC2CCN(c3nnnn3-c3ccccc3)CC2)c1 (stereo unspecified),-6,-15,3,6,-6,-111,i,-20,
COc1ccc2ccc(OCC(=O)NCC3CCCO3)cc2c1 (stereo unspecified),nt,nt,0,1,nt,3,nt,-25,
CC(NC(=O)c1cn(C)c2ccc(S(=O)(=O)N3CCCC3)cc2c1=O)c1ccc2c(c1)OCCO2 (stereo unspecified),-4,-3,4,8,-7,-127,i,-5,
COc1cc(NC(=O)c2ccc(COCC(F)(F)F)o2)cc(OC)c1OC,-19,-3,5,-3,-2,nt,i,1,
O=C(C[C@H]1C/C=C\C[C@@H](Cc2ccc(F)cc2)C(=O)OC[C@@H]2CCCN2C1=O)NCCO,nt,-16,-2,-4,nt,3,nt,0,
O=C(CCc1nnc(C2(c3ccc(Cl)cc3)CCC2)o1)NC1CC1,7,-3,0,1,5,-47,i,nt,
O=C(NC1CCCC1)C1CC(=O)N(c2ccc(F)cc2)C1 (stereo unspecified),-5,nt,0,3,-2,19,i,3,
C=CCN(C(=O)CSc1nnnn1C)c1nc(-c2ccccc2)cs1,nt,nt,-1,-4,nt,-10,nt,-12,
O=C(C[C@@H]1C/C=C/CCCC(=O)O[C@H](c2ccccc2)CNC1=O)NCCO,nt,-1,6,9,nt,-6,nt,-15,
Cc1cc(=O)oc2cc(OCC(=O)OCC(=O)Nc3c(C)n(C)n(-c4ccccc4)c3=O)ccc12,5,-11,0,1,6,2,i,nt,
O=C(/C=C/c1ccccc1)Nc1cccc(C(=O)O)c1,-6,-5,-1,1,1,78*,i,nt,
CCOC(=O)C1(Cc2cccc(OC)c2)CCN(CC=C(C)C)CC1,-5,1,-5,-6,4,16,i,-4,
CCn1c2ccccc2c2nnc(SCc3ccc(C(=O)OC)o3)nc21,-3,-6,7,-2,-2,2,i,1,
Cn1cnnc1SCc1ccc(C(=O)N=Nc2c(O)n(C)c3ccccc23)cc1,8,-12,7,-3,-8,-44,i,-18,
CC(C)(C)C1=C(C#N)C(c2ccc3c(c2)OCO3)C(C#N)=C(N)O1 (stereo unspecified),0,6,-2,0,2,nt,i,-19,
CCN(CC(=O)Nc1ccc(NC(C)=O)cc1)C(=O)C(c1ccccc1)c1ccccc1,-5,2,1,0,-13,-3,i,nt,
CCOc1ccc(N(CC)C(=O)c2nn(-c3ccc(OC)cc3)c(=O)c3c2c2ccccc2n3C)cc1,-5,-4,1,2,-11,-14,i,-7,
CCO[C@@H]1OC(C(=O)NCc2ccccc2)=C[C@H](C2CC2)[C@H]1CCCO,4,-15,0,4,-7,-42,i,-20,
CN=C1SC(CC(=O)Nc2ccc(N3CCOCC3)cc2)C(=O)N1C (stereo unspecified),4,nt,2,6,6,-60,i,-3,
O=C(CCC(=O)c1cccs1)Nc1ccc(F)c(F)c1F,8,-19,-2,1,4,-46,i,-7,
COC(=O)c1sccc1S(=O)(=O)NC(C)c1cnn(-c2ccc(OC)cc2)c1C (stereo unspecified),3,0,2,0,-1,2,i,-8,
COc1ccc(CN(C)C(=O)c2ccccc2Sc2ccccc2C#N)cc1OC,2,-5,-1,-8,21,11,i,6,
COc1ccc(Cl)cc1NC(=S)NCCSc1ccc(C)cc1,-2,46,3,0,9,14,i,-2,
CCC(CO)N=CC1=C(O)CC(c2ccccc2)CC1=O (stereo unspecified),6,-6,6,1,3,-55,i,-16,
O=C(CSc1nc2ccccc2o1)NC(=O)NCc1ccccc1,-2,1,12,-2,-6,nt,i,nt,
OC(COCCC12CC3CC(CC(C3)C1)C2)CN1CCCCC1 (stereo unspecified),4,61,4,1,9,nt,i,nt,
C=C(C)Cn1c(=O)c2c(nc3n2CCN3c2cccc(Cl)c2C)n(C)c1=O,-3,-9,6,0,7,28,i,-5,
CN(CCNC(=O)c1ccc(/C=N/O)nc1)Cc1ccccc1,-3,1,0,0,8,3,i,-8,
COc1cccc(NC(=O)CN(C)C(=O)c2cc3c(s2)CCCC3)c1,nt,-12,-3,4,nt,nt,nt,0,
O=C(Nc1ccc([N+](=O)[O-])cn1)C1CCCCC1,3,2,-6,1,4,-1,i,-10,
COc1ccccc1NS(=O)(=O)c1cc(NC(=O)CNC(=O)c2ccccc2)ccc1C,-6,-20,0,-2,10,-11,i,3,
Cc1cccc(NC(=O)c2onc3c2CCCC3)n1,-6,21,2,2,1,nt,i,-37,
CNc1cncc(-c2cccc(C(=O)NCCN(C)C)c2)n1,nt,nt,1,2,nt,-5,nt,-24,
Cc1csc(C(=O)O)c1-c1c(C)csc1C(=O)O,-3,-7,6,7,2,-16,i,-6,

# 6 compounds picked at random from those above, as already listed:
SMILES,eIF4H inh,CSC inhib,MT1-MMP act inh,MT1-MMP act inh RFP,PABP polyA inh,HIV Env fusion,Rce1 inh,Yeast UUG start,others
CCOC(=O)c1ccc(NC(=O)c2c(N)n(C)c(=O)n(C)c2=O)cc1,nt,-24,0,1,nt,-12,i,-22,
O=C(CCc1nnc(C2(c3ccc(Cl)cc3)CCC2)o1)NC1CC1,7,-3,0,1,5,-47,i,nt,
COc1ccc2ccc(OCC(=O)NCC3CCCO3)cc2c1 (stereo unspecified),nt,nt,0,1,nt,3,nt,-25,
O=C(C1CCCN(c2ncnc3c2nc2n3CCCCC2)C1)N1CCCCC1 (stereo unspecified),-14,-14,0,-4,-4,9,i,12,
CCOc1ccc(N(CC)C(=O)c2nn(-c3ccc(OC)cc3)c(=O)c3c2c2ccccc2n3C)cc1,-5,-4,1,2,-11,-14,i,-7,
O=C(CCC(=O)c1cccs1)Nc1ccc(F)c(F)c1F,8,-19,-2,1,4,-46,i,-7,

# Following part.
SMILES,eIF4H inh,CSC inhib,MT1-MMP act inh,MT1-MMP act inh RFP,PABP polyA inh,HIV Env fusion,Rce1 inh,Yeast UUG start,others
Cc1cccc(NCC(O)Cn2cnc3c2c(=O)n(C)c(=O)n3C)c1 (stereo unspecified),-1,-3,-10,-22,8,nt,i,9,
O=C(NCC(=O)N1CCCCCCC1)c1ccc(Cl)cc1,nt,5,3,3,nt,nt,nt,-8,
CC(C)CNS(=O)(=O)c1ccc(CCC(=O)N2CCC(C(N)=O)CC2)cc1,-7,-8,-1,2,0,-5,i,nt,
Cc1cc(Cl)ccc1NC(=S)N1CCN(C(=O)c2ccco2)CC1,5,-8,4,-1,2,11,i,-16,
O=C(O)/C=C/c1ccc2c(-c3ccccc3)onc2c1,14,-47,-22,-5,-1,10,i,nt,
COc1ccccc1C(C)NC(=O)CCOc1cccc(C)c1 (stereo unspecified),4,-2,3,1,6,4,i,-14,
CC(C)OCCCNC(=O)Cn1ccc2cc(S(=O)(=O)N3CCCCC3)ccc21,-4,2,2,2,-10,9,i,7,
CCc1c(O)nc(SCC(=O)Nc2ccc(C)cc2)n(C2CCCCC2)c1=O,-6,-2,-12,-5,-4,nt,i,-10,
CC(C)(C)NS(=O)(=O)c1ccc(CCC(=O)N2CCCCC2)cc1,-2,-14,-3,0,-8,-53,i,3,
Cc1ccc(-c2nc(SCC(=O)Nc3cc(C)on3)c3c(=O)n(C)c(=O)n(C)c3n2)cc1,5,29,4,4,8,nt,i,-13,
Cc1cc(C)c(NC(=O)C2CCN(C(=O)c3ccco3)CC2)c(C)c1,-3,-8,1,2,-2,-8,i,-11,
CCCC(=O)Nc1ccc(C(=O)N/N=C/c2ccc([N+](=O)[O-])o2)cc1,75,0,-7,-4,7,14,i,nt,eIF4H inh retest=-10;PABP polyA inh retest=11
COc1ccc(NC(=O)CNS(=O)(=O)c2ccc(Cl)cc2)cc1OC,1,10,4,5,1,nt,i,-14,
O=C1CC(Nc2ccccc2)C(=O)N1Cc1ccccc1 (stereo unspecified),3,2,-9,4,-4,-65,i,-21,
CC1(C(=O)Nc2ccc3[nH]ncc3c2)CCN1C(=O)CC(c1ccccc1)c1ccccc1 (stereo unspecified),nt,nt,-4,-4,nt,-32,nt,-7,
CCOC(=O)c1cnc(N2CCOCC2)[nH]c1=O,-4,-15,14,11,7,-16,i,-17,
O=C(NCCN1CCCC1)c1cccc(Cl)c1,3,-3,4,11,-1,9,i,-6,
Cc1nc2cc(NS(=O)(=O)c3cccc(F)c3)ccc2s1,-1,18,2,-4,-14,7,i,nt,
Cc1ccccc1C(=O)NCC(C)NC(=O)c1ccccc1C (stereo unspecified),nt,3,2,-1,nt,6,i,nt,

# Source: PubChem
